# Source: PubChem BioAssay
# RE007 growth inh: less growth of the S. pombe RE007 Vpr strain; actives 0.21% (n = 360,000); AID 651644; Potency, µM (titrated, usually from 92.2 µM), for inactives: at the top dose activity change, negative = less growth; S. pombe RE007 Vpr strain, BacTiter-Glo ATP luminescence, 24 h; control for the full effect not named in the record; active = well fitted falling curve with a large enough effect; inconclusive = small, poorly fitted or top-dose-only effect; inactive = no such curve, though single readings can be large or run the other way;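 also: nearly all actives have a fitted effect of over 50% in size; the assay follows cell death caused by Vpr and the record does not say whether a fall means rescue or toxicity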
#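 Fission yeast strain RE007, carrying one chromosomally integrated HIV-1 vpr copy, was seeded at OD 0.01 in PMG+AL medium with 23 nL pinned compound. After 24 h at 30 °C and 99% humidity, viability was read by BacTiter-Glo luminescence.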
# 2A StopGo: FMDV 2A StopGo reporter, luciferase signal; actives 1.2% (n = 410,000); human cells with a luciferase reporter of 2A StopGo recoding; control for the full effect not named in the record; Potency, µM (titrated, usually from 57.9 µM), for the others: at the top dose signal change, negative = less light; active = well fitted falling curve with a large enough effect; inconclusive = small, poorly fitted or top-dose-only effect; inactive = no such curve, though single readings can be large or run the other way; tested in HEK293T cells; also: nearly all actives have a fitted effect of over 45% in size; luciferase light after 4 h
# Starred values were filed as active, the others as inactive; ? = inconclusive; [ ] = remark or other dose. % is scaled to controls: 0 for no effect and ±100 for the full control effect; potency is read from the fitted curve at half-maximal effect. Not all compounds are listed; count on the stated rates, not on these rows.
SMILES,RE007 growth inh,2A StopGo
C[C@H]1CCC[C@@]2(O[C@H](CCO)C[C@@H](O)[C@@H]2O)O1,1.1%,-1.4%
CC(C)C[C@@H]1COc2cccc(N3CCN(C)CC3)c2S(=O)(=O)N1,7.7%,-20.3%
COCC(=O)Nc1ccc(S(=O)(=O)Nc2onc(C)c2C)cc1,12.5%,-18.1%
Cn1nc(C(C)(C)C)cc1C(=O)N1CCCCC1c1cc(C(=O)NCc2cccnc2)no1 (stereo not drawn),2.9%,-13.3%
CCSCCCn1[nH]c2ccccc2c1=O,0.9%,19.7%
O=c1[nH]c(=O)n2ncnc2[nH]1,-1.9%,-17.7%
COc1ccc(/C=C(\NC(=O)c2ccc(Cl)cc2)C(=O)NCc2cccnc2)cc1OC,-4.5%,-1.1%
Cc1ccc(C2=NN(C(=O)CSc3nnnn3C)C(c3ccco3)C2)cc1 (stereo not drawn),0.5%,-8.6%
CS(=O)(=O)Nc1cccc(NC(=O)C2Cc3c(-c4ccccc4)ccnc3O2)c1 (stereo not drawn),6.9%,?
Cc1ccccc1CN1CCN(C(=O)[C@H]2O[C@@H](n3ccc(=O)[nH]c3=O)[C@H](O)[C@@H]2O)CC1,5.8%,-28.0%
Nc1sc(-c2ccccc2)cc1C(=O)NCCc1ccc(Cl)cc1,-27.7%,-10.8%
O=C(Cn1ccnc1[N+](=O)[O-])NCc1ccccc1,7.8%[18.4 µM],-11.9%
C=CCNC(=S)N1Cc2ccccc2-n2nncc2C1,-1.6%,-20.9%
CC(=O)Nc1cccc(-c2ccnc3c2CC(C)(C(=O)Nc2cccc(OC(F)(F)F)c2)O3)c1 (stereo not drawn),3.4%,?
OC(c1ccccc1)c1nc(-c2ccc(F)c(Cl)c2)cs1 (stereo not drawn),?,28.5%

# As entered above:
# OC(c1ccccc1)c1nc(-c2ccc(F)c(Cl)c2)cs1 (stereo not drawn) @ 2A StopGo: 28.5%
# C=CCNC(=S)N1Cc2ccccc2-n2nncc2C1 @ RE007 growth inh: -1.6%
# CC(=O)Nc1cccc(-c2ccnc3c2CC(C)(C(=O)Nc2cccc(OC(F)(F)F)c2)O3)c1 (stereo not drawn) @ RE007 growth inh: 3.4%

# New compounds follow:
SMILES,RE007 growth inh,2A StopGo
Cc1cc(C(=O)CCC(=O)Nc2cccc(F)c2)c(C)s1,-17.2%,-1.5%
CCOC(=O)C1=C[C@@H](c2ccccc2)N(S(=O)(=O)c2ccc(C)cc2)[C@H]1c1ccc(OC)cc1,4.3%,-6.1%
CCC1(CC)C(=O)C2=C3C1[C@H](C(=O)OC)C=C(C(=O)OC)C[C@H]3[C@H]1C(=O)N(Cc3ccccc3)C(=O)[C@H]1[C@H]2C (stereo partly drawn),-6.5%,-21.4%
C[C@H]1CN([C@@H](C)CO)C(=O)CCCn2cc(nn2)CO[C@@H]1CN(C)C(=O)Nc1ccc(C(F)(F)F)cc1,-15.2%,-14.0%
COc1cccc(CNc2nc3cc(-c4ccsc4)sc3c(=O)n2C)c1OC,3.7%[18.4 µM],31.6µM*
NC(=O)c1ccc(NC(=O)CNc2cc(S(=O)(=O)N3CCOCC3)ccc2N2CCCC2)cc1,5.4%,-2.1%
COc1ccccc1N1CCCSC1=Nc1ccccc1,-10.4%,-28.6%
C#CCOCCOCCOCCNc1nc(N2CCN(C(=O)[C@H]([C@@H](C)CC)n3cc(CCC(=O)O)nn3)CC2)nc(N2CCN(C(=O)[C@H](CCCCN)n3cc(CCC(=O)O)nn3)CC2)n1,2.6%,-1.7%
CC1(c2nnnn2Cc2ccccc2)CCC(=O)N1Cc1ccc(F)cc1 (stereo not drawn),2.1%,-22.0%
CC(C)Oc1ccc(S(=O)(=O)N2CCOCC2)cc1NC(=O)c1nn(C)c(=O)c2ccccc12,0.6%,-20.2%
COC(=O)[C@@]12C[C@@H](CC(=O)NCCCN3CCCC3=O)C(=O)N(Cc3ccccc3)C1=CCC(C)(C)C2,-8.4%,-16.3%
CCCCCC(=O)N1C[C@@H](n2cc(-c3ccc(F)cc3)nn2)[C@H](O)C[C@@H]1c1ccc(OC)cc1,13.1%,-23.1%
COc1ccc(CN2C(=O)C(CC(=O)NC3CCCC3)CC(C(=O)N(C(C)C)C(C)C)=C2C)cc1 (stereo not drawn),-8.3%,-3.8%
COCCN1C(=O)CCC1(C)C(=O)NC(C)(C)C (stereo not drawn),3.8%,-15.8%
Cc1ccc(S(=O)(=O)Oc2ccccc2C=C2C(=O)NC(=O)NC2=O)cc1,9.5%,-6.9%

# Two compounds picked at random from those above:
SMILES,RE007 growth inh,2A StopGo
Cc1ccccc1CN1CCN(C(=O)[C@H]2O[C@@H](n3ccc(=O)[nH]c3=O)[C@H](O)[C@@H]2O)CC1,5.8%,-28.0%
CS(=O)(=O)Nc1cccc(NC(=O)C2Cc3c(-c4ccccc4)ccnc3O2)c1 (stereo not drawn),6.9%,?

# Next records follow.
SMILES,RE007 growth inh,2A StopGo
COCCNC(=O)C1(C)CCCN(Cc2cc3ccccc3o2)C1 (stereo not drawn),3.4%[18.4 µM],-15.9%
O=C(/C=C/c1ccccc1)Nc1cccc(C(=O)N2CCCCC2)c1,-6.3%,-1.9%
O=C(O)c1cscc1-c1cccc2ccccc12,0.2%,0.0%
COCOc1ccc(C=O)c(OCOC)c1,9.3%,-14.7%
CCCCCCCCN1C(=O)[C@H](CC(=O)NCCCC)C[C@@]2(C(=O)OC)CC(C)(C)CC=C12,6.5%,-10.9%
COc1ccc(S(=O)(=O)N2CCCCC2c2cc(C(=O)Nc3ccc(F)c(Cl)c3)no2)cc1 (stereo not drawn),-3.0%,-41.7%
CNS(=O)(=O)c1cc(-c2nnc(N3CCOCC3)c3ccccc23)ccc1C,2.4%,72.3%[activator]
Cc1ccc(S(=O)(=O)N2C3CCCCC3O[C@H]2CC(=O)Oc2ccccc2)cc1 (stereo partly drawn),-11.2%,-18.9%
C=C(C)Cn1c2ccc(NC(=O)NCCc3ccccc3)cc2c(=O)n1C,4.6%[18.4 µM],15.1%
CCOC(=O)C(=Cc1ccc(N(C)C)cc1)C(=O)c1ccccc1,-0.8%,?
CC(C)NC(=O)C1(C)CCN1C(=O)Cc1ccc(-c2ccccc2)cc1 (stereo not drawn),-7.4%[18.4 µM],-27.6%
COc1cccc(CN2CCC2(C)C(=O)Nc2ccc(Cl)c(Cl)c2)c1F (stereo not drawn),-14.8%[18.4 µM],-26.8%
COc1ccccc1Cc1c(-c2ccc(OC)c(OC)c2)nc2ccc(C)cn12,-29.0%,-8.0%
CC(C)C(N)c1csc(Nc2ccc(S(C)(=O)=O)cc2)n1 (stereo not drawn),1.5%[18.4 µM],-0.1%
C=C1CCN([C@@H](Cc2ccccc2)C(=O)N2CCOCC2)S(=O)(=O)c2ccccc21,-14.4%,21.0%
COCCNC(=O)C1CCCN(C(=O)c2cccnc2Oc2ccccc2)CC1 (stereo not drawn),-5.3%,-2.1%
CC(C)C[C@H]1CN(CCCC[C@H]2CNC(=O)C(=O)N2CCC2CCCCC2)C(=O)C(=O)N1CCc1ccccc1,1.8%,-11.9%
O=C(Nc1cccc(C(F)(F)F)c1)C1Cc2c(-c3ccc(Cl)cc3)ccnc2O1 (stereo not drawn),-16.7%,?
CN1CCN(c2ncnc3c2ncn3[C@H]2CN(Cc3ccncc3)C[C@@H](CO)O2)CC1,-16.0%,-8.2%
NC(c1ccccc1)c1csc(NC(=O)NCC2CCCCC2)n1 (stereo not drawn),3.7%,-11.2%
CCOc1ccccc1N1CCN(CC(=O)N(C)CC(=O)Nc2ccccc2CC)CC1,-6.6%,-16.0%
O=C(Nc1ccc(F)cc1)N[C@@H]1CC[C@@H](CCn2cc(-c3ccc(F)cc3)nn2)O[C@@H]1CO,87.3%,-16.5%
CCCCn1c(N)c(N(CC(C)C)C(=O)CCN2C(=O)C3CC=CCC3C2=O)c(=O)[nH]c1=O (stereo not drawn),-3.8%,-27.3%
Cc1ccccc1C(=O)N(C)[C@H]1C[C@H]2c3[nH]c4ccccc4c3CCN2C[C@H]1[C@H](C)O,-20.7%,-11.0%
CC(=O)NC1CC2CCCC(C1)N2C(=O)Nc1ccccc1C (stereo not drawn),7.4%,-8.6%
CCN(CC)C(=O)C1=C(C)N(Cc2ccccc2)C(=O)C(CC(=O)NCCCCc2ccccc2)C1 (stereo not drawn),7.6%,-2.9%
COc1ccc(C(C(=O)NCc2ccccc2)n2c(=O)c(-c3cc4ccccc4[nH]3)nc3ccccc32)cc1 (stereo not drawn),7.9%,7.4%
Cc1ccc(S(=O)(=O)CCC(=O)OCC(=O)Nc2cccc(S(=O)(=O)N3CCCCC3)c2)cc1,6.5%,-7.7%
O=C(NCc1ccccc1)c1cc(C2CCCN(C(=O)c3ccccc3)C2)on1 (stereo not drawn),-6.7%[18.4 µM],0.6%
COc1ccc(C(C)=O)cc1CN1C(=O)C(C)ON=C1c1ncccc1C (stereo not drawn),-7.5%[18.4 µM],-12.1%

# A second format for part of the listing above.
> COCCNC(=O)C1CCCN(C(=O)c2cccnc2Oc2ccccc2)CC1 (stereo not drawn)
  RE007 growth inh: -5.3%; 2A StopGo: -2.1%

> COc1ccc(C(C)=O)cc1CN1C(=O)C(C)ON=C1c1ncccc1C (stereo not drawn)
  RE007 growth inh: -7.5%[18.4 µM]; 2A StopGo: -12.1%

> Cc1ccccc1C(=O)N(C)[C@H]1C[C@H]2c3[nH]c4ccccc4c3CCN2C[C@H]1[C@H](C)O
  RE007 growth inh: -20.7%; 2A StopGo: -11.0%

> CCOc1ccccc1N1CCN(CC(=O)N(C)CC(=O)Nc2ccccc2CC)CC1
  RE007 growth inh: -6.6%; 2A StopGo: -16.0%

# Following part:
SMILES,RE007 growth inh,2A StopGo
CCCCCCCCN1C(=O)[C@H](CC(=O)NCc2ccccc2)C[C@@]2(C(=O)OC)CC(C)(C)CC=C12,-11.6%,-29.1%
CN(C(=O)c1ccc(NC(=O)Cc2ccc(NC(=O)C3CCN(C(=O)c4ccccc4)CC3)cc2)cc1)C1CCCC1,-6.8%,1.3%
Cn1ccc2c(N3CCCC3)cc3c(c21)C1CCC3C1 (stereo not drawn),-25.4%,-18.9%
O=c1[nH][nH]c2c1[C@H](c1ccc(Cl)cc1)O[C@H](C1CCCCC1)C2,-2.3%,-18.3%
CC1=C(C(=O)Nc2cccc(C(=O)NCC(C)c3ccccc3)c2)SCCO1 (stereo not drawn),-19.4%,10.0%
CC(=O)Nc1ccc(CN2C(=O)C(C)(C)ON=C2c2ccc(NC(C)=O)cc2)cc1,7.0%[18.4 µM],-5.3%
CC(=O)Nc1nc(-c2ccc(-c3ccccc3)cc2)cs1,-15.0%,31.6%[activator]
CN(C)Cc1csc(Nc2ccc(C(F)(F)F)cn2)n1,-21.1%,-1.7%
Cc1cc(C)nc(Nc2nc(C(N)c3ccccc3)cs2)n1 (stereo not drawn),-11.3%,-16.6%
COC(=O)C1CC2=C(CCC2=O)N(c2ccccc2)C1=O (stereo not drawn),0.0%,0.4%
COc1ccc(NC(=O)C2(C)CCN2Cc2ccc(OC(C)C)cc2)cc1OC (stereo not drawn),-4.9%,?
CN(C(=O)c1cccc(NC(=O)Cc2ccc(NC(=O)C3CCN(S(=O)(=O)c4cccc([N+](=O)[O-])c4)CC3)cc2)c1)C1CCCCC1,-18.7%,-25.1%
Nc1[nH]c(C(=O)c2ccccc2)c(-c2ccncc2)c1C(=O)NCc1ccc(Cl)cc1,12.1%,-10.3%
CC(C)(C(=O)N1CCC1(C)C(=O)NS(=O)(=O)c1cccc(F)c1)c1ccccc1 (stereo not drawn),-5.4%[18.4 µM],23.5%
CCCN[C@H]1CCc2nc(N)sc2C1,-4.9%[18.4 µM],-22.5%
COc1ccc(NC(=O)c2cc(-c3ccc(F)cc3OC(C)C)n[nH]2)cn1,4.3%,-29.6%
CN(C)C1CN(Cc2cn(Cc3ccc(C(F)(F)F)cc3)nn2)S(=O)(=O)C1 (stereo not drawn),3.5%,-16.1%

# Copied from the entries so far, 5 compounds:
SMILES,RE007 growth inh,2A StopGo
Nc1[nH]c(C(=O)c2ccccc2)c(-c2ccncc2)c1C(=O)NCc1ccc(Cl)cc1,12.1%,-10.3%
CC(C)(C(=O)N1CCC1(C)C(=O)NS(=O)(=O)c1cccc(F)c1)c1ccccc1 (stereo not drawn),-5.4%[18.4 µM],23.5%
CCCN[C@H]1CCc2nc(N)sc2C1,-4.9%[18.4 µM],-22.5%
COc1ccc(NC(=O)c2cc(-c3ccc(F)cc3OC(C)C)n[nH]2)cn1,4.3%,-29.6%
CN(C)C1CN(Cc2cn(Cc3ccc(C(F)(F)F)cc3)nn2)S(=O)(=O)C1 (stereo not drawn),3.5%,-16.1%
